Screening data as filed in PubChem.
TRPML1 inh – inhibitors of human TRPML1 channel | TRPML1-inducible cells, Ca2+ dye fluorescence, FDSS; stronger effect = lower value; inhibition of EC80 agonist-evoked calcium signal | activity change, negative = inhibition, % (no concentration beside the values) | Q9GZU1 | 0.02% of 390,000 active | AID 624415; in the data active means activity change below about -50%; inconclusive means about -30% to -50%; inactive means above about -30%;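 further: stimulus is agonist 54-4 at its EC80 concentration; on the % scale 0 is the no-effect control and ±100 the full control effect; compound concentration not given in the record; the text of the record puts the active cut at -80%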
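Tet-induced TRPML1-DL cells loaded with Ca8 no-wash calcium dye were read kinetically on FDSS. Compound addition was followed by EC80 agonist 54-4 (4 uM final); inhibition was read over 110 s.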
TRPML1 agonist – human mucolipin-1 channel agonism | TRPML1-expressing cells, Ca2+ dye fluorescence, FDSS; host cell line not named in the record; reference of the full effect not given here | 0.12% of 410,000 active | AID 624414 | activation, % (test concentration not listed); in the data active = activation above about 50%; inconclusive = about 30% to 50%; inactive = below about 30%; further: 0% is about no effect; the text of the record puts the active cut at 80%
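Cells: TRPML1-DL, 1X Tet inducer, ~16 h at 37 degrees C/5% CO2. Dye: ABD Ca8 no-wash + quencher, 45-90 min RT. Read: 10 s baseline, compound add, 110 s agonist phase; 54-4 EC80 (4uM final), 110 s antagonist phase.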
Six1-Eya2 inh – inhibitors of human Six1/Eya2 interaction; 0.56% of 360,000 active; activity change, % (concentration not given with the values); AlphaScreen GST-Six1/His-Eya2 binding, biochemical; stronger effect = lower value; control for the full effect not named in the record; AID 651725; Q15475+O00167; in the data active = activity change below about -65%; inconclusive = about -30% to -65%; inactive = above about -30%; further: on the % scale 0 is the no-effect control and ±100 the full control effect
Target sequence (O00167 whole entry, looked up): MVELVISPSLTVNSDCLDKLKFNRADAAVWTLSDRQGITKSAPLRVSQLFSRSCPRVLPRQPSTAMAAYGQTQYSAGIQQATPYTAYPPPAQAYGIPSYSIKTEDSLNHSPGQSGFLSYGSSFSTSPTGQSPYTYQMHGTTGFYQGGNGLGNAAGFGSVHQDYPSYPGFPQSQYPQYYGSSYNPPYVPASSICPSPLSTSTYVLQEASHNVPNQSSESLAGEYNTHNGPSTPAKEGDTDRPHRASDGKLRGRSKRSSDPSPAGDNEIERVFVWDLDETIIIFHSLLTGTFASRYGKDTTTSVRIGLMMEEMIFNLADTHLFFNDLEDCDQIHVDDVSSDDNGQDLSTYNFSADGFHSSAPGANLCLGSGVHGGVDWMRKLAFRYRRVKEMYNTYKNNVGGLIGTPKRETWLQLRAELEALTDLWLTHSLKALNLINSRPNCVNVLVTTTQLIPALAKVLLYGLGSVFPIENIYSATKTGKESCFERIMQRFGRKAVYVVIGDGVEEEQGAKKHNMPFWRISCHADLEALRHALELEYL
Target sequence (Q15475 whole entry, looked up): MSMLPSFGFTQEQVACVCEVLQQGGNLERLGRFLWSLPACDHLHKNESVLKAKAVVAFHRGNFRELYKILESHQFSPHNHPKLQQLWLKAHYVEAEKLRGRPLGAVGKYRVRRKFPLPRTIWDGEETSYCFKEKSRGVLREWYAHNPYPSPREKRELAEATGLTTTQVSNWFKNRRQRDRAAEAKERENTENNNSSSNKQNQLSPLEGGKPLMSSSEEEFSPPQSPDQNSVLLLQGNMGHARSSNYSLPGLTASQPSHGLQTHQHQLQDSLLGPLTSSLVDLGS
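AlphaScreen luminescence read after one hour at 37 °C in darkness. Pin-transferred compounds met GST-Six1 and His-Eya2 protein (5X stock 250 nM/500 nM) plus glutathione donor and Ni-chelate acceptor beads (5X, 50 ug/mL).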
CtBP-E1A blk – blocks the CtBP interaction with E1A; AlphaScreen GST-E1A/His-CtBP binding, 1536-well; stronger effect = lower value; control for the full effect not named in the record; activity change, % (test concentration not listed); 0.49% of 340,000 active; AID 651724; in the data active means activity change below about -65%; inconclusive means about -30% to -65%; inactive means above about -30%; further: on the % scale 0 is the no-effect control and ±100 the full control effect; compound concentration not given in the record
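GST-E1A and His-tagged CtBP (125 nM each as 5X stock) were preincubated with pin-transferred compound for 2 h at 37 °C in the dark, then glutathione donor and nickel acceptor beads were added for 1 h before AlphaScreen reading.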
PINK1 modulator – modulators of PINK1 expression; PINK1 immunofluorescence, high-content cytometry, 24 h; Potency, µM (titrated, usually from 76.6 µM), for the others: at the top dose activation (PINK1 increase), hits mostly activators; 0.2% of 410,000 active; active = well fitted activation curve with a large enough effect; inconclusive = small, poorly fitted or top-dose-only effect; inactive = flat fitted curve, though single readings scatter; cell line not stated here;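 further: potency means the concentration at half of the fitted maximal effect; % of control where 0% means no effect; nearly all actives have a fitted effect of over 65% in size; a mitochondrial uncoupler was the plate control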
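Cells are seeded, rested 12 hours, then given compound at five concentrations or DMSO for 24 hours. After fixation, blocking and antibody staining, PINK1 amount and mitochondrial localization are scored; CCCP serves as control.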
D2 ag – human D2 receptor agonism in beta-arrestin assay. DiscoveRx PathHunter D2 beta-arrestin, luminescence, 90 min; 100% = 57 uM dopamine signal. activation, % (no concentration beside the values). 0.084% of 360,000 active. AID 624465; in the data active = activation above about 40%; inconclusive = about 15% to 40%; inactive = below about 15%; further: compound concentration not given in the record; the text of the record calls up to 30% inactive
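DiscoveRx PathHunter D2 beta-arrestin cells (2,100/well) attached overnight, then compound-stimulated 90 min at 37 C in HBSS/10 mM HEPES/0.1% Tween-20 buffer; beta-galactosidase complementation read by luminescence after 1 h at ambient temperature. Dopamine 57 uM final (EC100) as control.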
* = called active by the depositor; ? = inconclusive; · = no result given; & = joins results of further samples; [ ] = dose if it differs, or a comment. Only part of the results is shown; rates above refer to the full screens.

SMILES	TRPML1 inh	TRPML1 agonist	Six1-Eya2 inh	CtBP-E1A blk	PINK1 modulator	D2 ag
O=c1[nH]c(=O)n(Cc2ccccc2)c(O)c1C=NCCCn1ccnc1	18	0.0	3	-6	1.4%	-5.7
CCOC(=O)c1c(/N=C/c2c(O)n(-c3ccccc3F)c(=S)[nH]c2=O)sc2c1CCCC2	-5	0.0	-8	0	2.5%	-4.1
Cc1ncc(C(=O)O)n1C(C)c1ccccc1 (stereo not drawn)	-18	-0.1	6	0	-0.5%	-4.6
C[C@]12CC[C@H]3[C@@H](CCC4=CC(=O)CC[C@@]43O)[C@@H]1CCC2=O	-5	-0.7	-7	·	0.3%	1.3
C[C@]12C[C@@H](O)[C@H](O)CC1=CCC1C2CC[C@]2(C)C(=O)CCC12 (stereo partly drawn)	-19	0.2	2	7	2.8%	-1.6
COc1ccc(NC(=O)CN2CC=C(c3ccccc3)CC2)cc1S(=O)(=O)N1CCOCC1	26	0.9	-3	-2	-0.4%	8.0
Cc1cc(OC(=O)N(C)C)nc2c1c(C)nn2C	-7	-0.4	-11	-6	2.2%	-3.5
C=Cn1ccnc1P(=S)(c1nccn1C=C)C1CCCCC1	-12	-0.3	-1	-9	0.0%[38.3 µM]	1.1
CCCCc1ncc(CN2CCCC(C(=O)c3ccc(SC)cc3)C2)[nH]1 (stereo not drawn)	-2	-0.3	6	-1	0.1%	-6.6
C[C@]12CC[C@H]3[C@@H](CCC4=CC(=O)CC[C@@]43C)[C@@H]1CC[C@@H]2O	-12&1	0.4&-0.1	0&-1	-10&4	-0.5%&0.6%	3.1&3.9
CCCC(=O)c1c(O)[nH]c(=O)[nH]c1=O	25	1.4	1	1	12%[38.3 µM]	-3.2
Cc1cc(OC(C)C(=O)N[C@H](C(=O)O)c2ccccc2)c2c3c(c(=O)oc2c1)CCC3 (stereo partly drawn)	·	·	-6	-7	0.4%	-4.0
COC(=O)C1=C(c2cc3ccccc3s2)C[C@@H]2CC[C@H]1N2C(=O)N1CCOCC1	5	0.3	-13	·	4.4%	2.7
Cc1ccc(Cn2cc(C=O)c(-c3ccc(F)cc3)n2)cc1	-8	-0.2	12	20	9.2%	3.8
CC(C)CC(NC(=O)CCCNC(=O)CCC(=O)OC1O[C@H]2OC3(C)CC[C@H]4[C@H](C)CCC(C1C)C24OO3)C(=O)O (stereo partly drawn)	28	0.8	33	-4	2.4%	·
CN(C)C(=S)SSC(=S)N(C)C	10	5.2	?	?	-0.9%	-12
CC(C)(O)[C@H]1O[C@H]2CC[C@@]3(C)[C@@](O)(CC[C@H]4Cc5c([nH]c6ccccc56)[C@@]43C)C2=CC1=O	-5	0.4	-4	-12	6.4%	6.4
C/C(=N\NC(N)=O)c1c(O)n(C)c(=O)n(C)c1=O	-10	0.5	5	·	-0.5%	-4.8
CCOC(=O)Cc1csc(NC(=O)c2c(O)c3ccccc3n(CCC(C)C)c2=O)n1	?	2.5	8	-10	3.7%	-2.1
Cc1cccc(N2C(=O)/C(=C/c3ccc(CN(CCC#N)S(C)(=O)=O)o3)C(=O)NC2=S)c1	-7	-0.1	?	-5	1.7%	-0.9
c1ccc(C2N3CCCN23)cc1 (stereo not drawn)	1	-0.3	7	5	0.7%	-1.7
COC(=O)C1=C(c2ccc(OC(F)(F)F)cc2)C[C@@H]2CC[C@H]1N2C(=O)NCC1CC1	5	-0.3	-2	4	1.2%	-2.4
O=c1[nH]c(=S)n(Cc2ccc(F)cc2)c(O)c1/C=N/N1CCCCC1	10	0.5	4	-11	0.6%	-0.9
COc1ccc(-n2c(-c3ccccc3[N+](=O)[O-])nc3ccccc3c2=O)cc1	4	-0.2	-14	-6	3.8%	-3.8
O=C1CSC2N1CCNC21CCCCC1 (stereo not drawn)	6	-0.1	3	10	0.5%	1.8

Following part:
SMILES	TRPML1 inh	TRPML1 agonist	Six1-Eya2 inh	CtBP-E1A blk	PINK1 modulator	D2 ag
O=P1(NCc2ccco2)COc2ccccc2OC1	-1	0.9	1	4	-2.2%	1.7
O=C(c1ccc2c(c1)OCO2)N1CCC2(CC1)OCCO2	6	-0.3	6	6	12%[38.3 µM]	-0.1
Cc1ccc(S(=O)(=O)NCC2CCC(C(=O)N3CCC4(CC3)OCCO4)CC2)cc1 (stereo not drawn)	9	-0.7	2	3	0.6%	-0.3
CC(=NCCCN1CCOCC1)c1c(O)[nH]c(=O)[nH]c1=O	11	-0.7	-2	-1	0.0%	-3.1
CC(=O)O[C@H]1CC[C@@]2(C)C(=CC[C@@H]3[C@@H]2CC[C@]2(C)C(=O)CC[C@@H]32)C1	37	-0.7	-5	4	6.1%	-0.4
COc1ccc(Oc2c(C)oc3cc(OC(=O)N4CCOCC4)ccc3c2=O)cc1	-4	1.0	2	-26	?	0.3
COc1cccc(OC)c1C(=O)Nc1nc(N)n(-c2ccccc2)n1	-5	-0.2	2	-4	0.6%	-1.3
Cc1[nH]c2ccccc2c1/C=N/O	18	0.2	2	0	3.3%[38.3 µM]	-1.1
CC1(C)CC2CCC(O)C2C(CCO)N1 (stereo not drawn)	-10	-0.6	5	5	-1.0%	1.5
O=S(=O)(NC1CCCCC1)OCC(Cl)(Cl)Cl	40	-0.3	8	·	3.5%	-1.3
NCc1cc(=O)[nH]o1	-6	-0.9	4	3	0.5%	4.7
CCCc1c(-c2ccccc2F)ncn1CCc1ccccc1OC	·	2.3	-22	-6	?	·
CCS(=O)(=O)NCc1nnc2n1-c1ccc(Cl)cc1C(c1ccccc1)=NC2	6	-0.5	30	-3	1.6%	-0.3
O=C1NC(=O)N(c2ccccc2F)C(=O)/C1=C/c1ccc(Oc2ccc([N+](=O)[O-])cn2)cc1	-7	0.0	2	-5	0.9%	-1.1
C=C1C(=O)O[C@@H]2C[C@@H](C)[C@H]3C=CC(=O)[C@]3(O)C[C@@H]12	11	-0.3	-5	2	11%	2.1
COC(=O)C1=C(c2cccc(OCc3ccccc3)c2)C[C@@H]2CC[C@H]1N2C(=O)NCc1cccc(OC)c1	11	3.8	-11	-4	1.0%	-1.2
CC(C)(C)n1cc(C(=O)c2ccc3ccccc3c2O)cn1	9	-0.3	-1	0	17%	-2.4
CC1(C(=O)O)CC12c1ccccc1-c1ccccc12 (stereo not drawn)	19	-0.3	-3	11	1.2%	-0.5
Cc1cccc2c(CCN)c[nH]c12	-7	0.1	1	-3	-0.8%	0.7
O=P(O)(O)Oc1ccccc1P(=O)(c1ccccc1)c1ccccc1	-1	0.5	2	·	2.6%	1.8
CC(=O)O[C@]1(C)C(=O)OC/C2=C/CN(C)CCC(OC(=O)[C@@](O)(C(C)O)C[C@H]1C)C2=O (stereo partly drawn)	9	-0.1	3	2	2.3%	-0.2
COc1c(C)cc(C(=O)C2CCCN(Cc3cnc(C)s3)C2)cc1C (stereo not drawn)	-2	-0.5	-1	-1	1.1%	-2.5
C[N+]1=C(/C=C/Nc2ccccc2)C(C)(C)c2ccccc21	-14	-0.1	0	1	-3.1%	-3.4
COc1ccc2c3c1OC1C(O)C=CC4C(C2)[N+](C)(C)CCC341 (stereo not drawn)	-12	2.9	0	·	-1.0%	1.0
CCOC(=O)c1c(C)n(Cc2ccccc2)c2ccc(OCC(O)CNC(C)(C)C)cc12 (stereo not drawn)	6	0.2	2	-16	-3.8%	-2.2

Six compounds drawn at random from the list so far:
SMILES	TRPML1 inh	TRPML1 agonist	Six1-Eya2 inh	CtBP-E1A blk	PINK1 modulator	D2 ag
CN(C)C(=S)SSC(=S)N(C)C	10	5.2	?	?	-0.9%	-12
Cc1cc(OC(C)C(=O)N[C@H](C(=O)O)c2ccccc2)c2c3c(c(=O)oc2c1)CCC3 (stereo partly drawn)	·	·	-6	-7	0.4%	-4.0
CC1(C)CC2CCC(O)C2C(CCO)N1 (stereo not drawn)	-10	-0.6	5	5	-1.0%	1.5
COC(=O)C1=C(c2cc3ccccc3s2)C[C@@H]2CC[C@H]1N2C(=O)N1CCOCC1	5	0.3	-13	·	4.4%	2.7
O=C1CSC2N1CCNC21CCCCC1 (stereo not drawn)	6	-0.1	3	10	0.5%	1.8
CCOC(=O)c1c(C)n(Cc2ccccc2)c2ccc(OCC(O)CNC(C)(C)C)cc12 (stereo not drawn)	6	0.2	2	-16	-3.8%	-2.2

(listing goes on)
SMILES	TRPML1 inh	TRPML1 agonist	Six1-Eya2 inh	CtBP-E1A blk	PINK1 modulator	D2 ag
CCN(CC)C(=O)c1ccc(N2C(=O)C3CC=C(Cl)CC3C2=O)cc1 (stereo not drawn)	-9	-0.1	4	7	1.1%	-0.9
CCCC[C@@H](C)C[C@@H](C)C(=O)N(C)[C@@H](CC(C)C)C(=O)N[C@H](C(=O)N(C)[C@H](C(=O)N1C[C@@H](O)C[C@H]1C(=O)N1C(=O)C=C[C@@H]1C)C(C)C)C(C)OC(C)=O (stereo partly drawn)	45	-0.6	3	7	-0.9%	-0.2
Cc1ccccc1-n1nc(C)c2c1NC(=O)CSC2c1ccccc1C(F)(F)F (stereo not drawn)	-1	1.6	·	·	3.7%	·
CC(=Nc1ccc2c(c1)CCC2)c1c(O)n(C)c(=O)n(C)c1=O	1	-0.3	0	2	3.4%	-0.4
COC(=O)C1=C(c2ccc(F)cc2OCc2ccccc2)C[C@@H]2CC[C@H]1N2C(=O)NCCc1ccc(F)cc1	-17	0.5	-6	1	-0.1%	0.5
O=C(N=Nc1c(O)[nH]c(=O)[nH]c1=O)C1COc2ccccc2O1 (stereo not drawn)	-19	-0.2	14	-4	-0.5%	-1.4
CC(=O)Nc1ccc(OC(=O)N(C)c2ccc(C)cc2)cc1	10	-0.3	0	·	0.5%	3.4
Cc1cc(C)c(-n2c(O)c(/C=N/N3CCCCC3c3cccnc3)c(=O)[nH]c2=O)c(C)c1 (stereo not drawn)	1	-0.3	-3	8	1.6%	1.7
O=[P+](Cc1ccccc1)Cc1ccccc1	1	-0.8	4	4	-1.8%	-15
Cc1cc(/C=C2\C(=O)NC(=O)N(c3cccc(F)c3)C2=O)c(C)n1-c1cc(C(=O)O)cc(C(=O)O)c1	0	0.5	?	1	0.7%	-0.7
COC(=O)C1=C(c2ccccc2)C[C@@H]2CC[C@H]1N2C(=O)NCCCOC(C)C	7	0.2	9	-10	1.8%	-1.3
CCC1(CC)C(=N)N(C)C(=O)NC1=O	-12	0.9	4	6	-2.4%	3.8
CCCCCC(=O)N[C@@H](c1ccccc1)[C@@H](O)C(=O)O[C@H]1C[C@@]2(O)[C@@H](OC(=O)c3ccccc3)C3[C@](C)(C(=O)[C@H](O)C(=C1C)C2(C)C)[C@@H](OC1OCC(O)C(O)C1O)C[C@H]1OC[C@@]31OC(C)=O (stereo partly drawn)	-9	-0.4	-90*	-22	12%	-4.8
CCOc1ccc(-c2cc(C)[n+](CCc3ccc(OC)c(OC)c3)c(-c3ccc(OCC)cc3)c2)cc1	8	-1.6	-5	-6	?	-4.4
CC(NCc1ccc(Cl)c(Cl)c1)C(O)c1ccccc1 (stereo not drawn)	20	1.1	4	8	-7.0%[38.3 µM]	-2.4
Cc1nc2nc(C)c(CCC(=O)N3CCC4(CC3)OCCO4)c(C)n2n1	-3	0.7	-2	-12	1.8%[38.3 µM]	-2.5
